2A StopGo: lowers the luciferase signal of an FMDV 2A StopGo reporter; human cells with a luciferase reporter of 2A StopGo recoding; control for the full effect not named in the record; Potency, µM (series often up to 57.9 µM), for inactives: at the highest dose signal change, negative = less light; 410,000 tested, 1.2% active; active = well fitted falling curve with a large enough effect; inconclusive = small, poorly fitted or top-dose-only effect; inactive = no such curve, though single readings can be large or run the other way; tested in HEK293T cells; also: % is scaled to controls: 0 for no effect and ±100 for the full control effect; nearly all actives have a fitted effect of over 45% in size; luciferase light after 4 h
RE007 growth inh: less growth of the S. pombe RE007 Vpr strain. S. pombe RE007 Vpr strain, BacTiter-Glo ATP luminescence, 24 h; control for the full effect not named in the record. 360,000 tested, 0.21% active. Potency, µM (titrated, usually from 92.2 µM), inactives show at the top dose activity change, negative = less growth; active = well fitted falling curve with a large enough effect; inconclusive = small, poorly fitted or top-dose-only effect; inactive = no such curve, though single readings can be large or run the other way;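 also: % is scaled to controls: 0 for no effect and ±100 for the full control effect; nearly all actives have a fitted effect of over 50% in size; the assay follows cell death caused by Vpr and the record does not say whether a fall means rescue or toxicity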
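Fission yeast RE007 carrying one integrated HIV-1 vpr copy, seeded at OD 0.01 in PMG+AL medium with 23 nL pinned compound. Grown 24 h at 30 degrees; viability read by BacTiter-Glo luminescence after 5 min.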
NS1 function inh: blocks influenza NS1 protein function | Potency, µM (top dose mostly 46.1 µM), without a hit: top-dose activity, positive = more growth | S. cerevisiae slowed by influenza A NS1, growth recovery by OD600 | AID 2326 | 270,000 tested, 0.4% active; active means well fitted rising curve with a large enough effect; inconclusive means small, poorly fitted or top-dose-only effect; inactive means no such curve, though single readings can be large or run the other way; also: nearly all actives have a fitted effect of over 50% in size
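In this qHTS, NS1 from influenza A is expressed in budding yeast, where it slows growth. Cells are switched from glucose to 2% galactose medium (pH 6.0, -URA), treated with compound, and growth recovery is read at OD600.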
Lassa entry inh: inhibitors of Lassa virus binding or cell entry; 300,000 tested, 1.2% active; AID 540256; Potency, µM (top dose mostly 37.9 µM), inactives show top-dose activity change, negative = inhibition, actives largely listed as inhibitors; Lassa virus pseudotype entry inhibition, cell reporter; control for the full effect not named in the record; active means well fitted inhibition curve with a large enough effect; inconclusive means small, poorly fitted or top-dose-only effect, or effect the other way; inactive means flat fitted curve, though single readings scatter; tested in HEK293 cells; also: % is scaled to controls: 0 for no effect and ±100 for the full control effect; nearly all actives have a fitted effect of over 50% in size; luciferase read-out
Cruzain Triton: cruzain (T. cruzi) inhibition with detergent | P25779 | purified cruzain, Z-FR-AMC fluorescence, 0.01% Triton | Potency, µM, without a hit: max response, negative = inhibition, usual class: inhibitors | 200,000 tested, 0.43% active | AID 1478;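 also: plate controls were neutral wells for no effect and buffer without enzyme for full effect; nearly all actives have a fitted effect of over 40% in size; top concentration of the series not given in the record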
Target sequence (P25779 123-467 limits assumed): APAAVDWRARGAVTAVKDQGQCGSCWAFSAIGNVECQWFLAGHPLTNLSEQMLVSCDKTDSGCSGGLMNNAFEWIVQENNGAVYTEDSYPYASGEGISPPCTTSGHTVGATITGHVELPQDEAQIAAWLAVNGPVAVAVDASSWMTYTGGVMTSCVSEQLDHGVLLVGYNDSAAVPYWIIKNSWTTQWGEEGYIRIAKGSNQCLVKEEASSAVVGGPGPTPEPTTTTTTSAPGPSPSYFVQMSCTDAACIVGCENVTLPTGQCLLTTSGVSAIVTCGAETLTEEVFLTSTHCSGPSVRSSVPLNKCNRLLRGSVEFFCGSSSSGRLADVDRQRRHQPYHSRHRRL
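Read-out: AMC fluorescence (360 nm excitation, 450 nm emission), four reads over 2 min, first-to-third difference used. Conditions: cruzain 1.5 nM, Z-FR-AMC 2 uM, pH 5.5 acetate, 5 mM DTT, 0.01% Triton X-100.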
MARV entry inh: Marburg virus entry inhibition | Potency, µM (series often up to 37.8 µM), for the others: at the top dose activity change, negative = inhibition, actives largely listed as inhibitors | Marburg virus pseudotyped entry inhibition, cell reporter; control for the full effect not named in the record; about a third of the inactives were read at about 46 µM | 300,000 tested, 1.8% active | AID 540276; active = well fitted inhibition curve with a large enough effect; inconclusive = small, poorly fitted or top-dose-only effect, or effect the other way; inactive = flat fitted curve, though single readings scatter; tested in HEK293 cells; about a fifth of its hits are not listed in these tables; also: % is scaled to controls: 0 for no effect and ±100 for the full control effect; luciferase read-out
SARS PLpro yeast: inhibitors of SARS-CoV papain-like protease in yeast; AID 485353; 330,000 tested, 0.19% active; S. cerevisiae expressing SARS-CoV PLpro, growth rescue; control for the full effect not named in the record; Potency, µM (series often up to 32.9 µM), for the others: top-dose activity, positive = growth rescue; active means well fitted rising curve with a large enough effect; inconclusive means small, poorly fitted or top-dose-only effect; inactive means no such curve, though single readings can be large or run the other way; also: 0% is about no effect; nearly all actives have a fitted effect of over 55% in size; growth read by luminescence after 48 h
Cruzain inh noDet: cruzain (T. cruzi) inhibition without detergent | Potency, µM, for inactives: max response, negative = inhibition, most hits filed as inhibitors | P25779 | purified cruzain, Z-FR-AMC fluorescence, no detergent | AID 1476 | 200,000 tested, 2.3% active;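 also: plate controls were enzyme without inhibitor for no effect and buffer without enzyme for full effect; nearly all actives have a fitted effect of over 40% in size; top concentration of the series not given in the record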
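Purified cruzain at 1.5 nM, pre-incubated 15 min with compound at room temperature in 100 mM sodium acetate pH 5.5, 5 mM DTT, 0.00005% Triton X-100. Reaction started with 2 uM Z-FR-AMC; AMC fluorescence increase over 60 s gives rate.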
An asterisk follows results filed as active; ? = inconclusive; nt = no result given; [ ] = remark or other dose. Unless noted, calls follow the shape of the dose curve; as a rule, active = well fitted curve in the direction sought with a large enough effect; inconclusive = small, poorly fitted or top-dose-only effect, or another doubt; inactive = no such curve, though single readings can be large; an effect the other way counts as inactive or inconclusive. Potency is read from the fitted curve at half-maximal effect.

The line under a structure holds: 2A StopGo | SARS PLpro yeast | Lassa entry inh | NS1 function inh | Cruzain inh noDet | Cruzain Triton | MARV entry inh | RE007 growth inh
Cc1cc(NC(=O)Cc2cccs2)nn1CC(=O)NCc1ccco1
 : -10% | 1% | -9% | 2% | -12% | 0.7% | 25%[46.1 µM] | 9%
COc1ccc(C)cc1S(=O)(=O)N(C)CC(N)=O
 : -13% | -3% | 4% | -1% | 3% | 6.8% | -3%[46.1 µM] | 21%
CCCCCN(C(=O)CCC(=O)OCc1cc(C(C)=O)ccc1OC)c1c(N)n(CCCC)c(=O)[nH]c1=O
 : -3% | 0% | 1% | nt | nt | nt | -24%[46.1 µM] | 17%
COc1cc(C)c(S(=O)(=O)NC2CC(C)(C)NC(C)(C)C2)cc1C
 : -15% | -2% | -1% | 4% | 7% | 6.9% | ? | 2%
CSc1cccc(NC(=O)c2ccc(Cl)nc2)c1
 : 37%[activator] | -4% | ? | -32% | 1% | -1.6% | 4% | -3%
CC(=O)Nc1nc(C)nc(-c2ccccc2)c1C(C)=O
 : 14% | 3% | 11% | 2% | 19% | 2.8% | 14% | 16%
CCOC(=O)c1sc(NC(=O)CSc2nccc(C)n2)c(C#N)c1C
 : -22% | 1% | -9% | -3% | -10% | -4.6% | 17%[46.1 µM] | -4%
CCCCC(=O)Nc1ccc(C(=O)NNC(=O)c2ccco2)cc1
 : nt | 0% | 9% | 5% | 2% | -1.9% | 14% | -1%
COC(=O)c1cc(CN2CCN(c3ccccc3C)CC2)ccc1O
 : -24% | 3% | -7% | 2% | 0% | 1.5% | ? | -8%
O=C(NCCCc1nc2ccccc2n1Cc1ccc(F)cc1)C1CCCCC1
 : -3% | nt | -12%[46.1 µM] | nt | -6% | -6.5% | -7%[46.1 µM] | nt
COc1ccccc1N1CCN(C(=O)c2cnn3cccnc23)CC1
 : nt | -2% | nt | -3% | 4% | -1.5% | nt | nt
Cc1cc(Cl)ccc1OC(C)C(=O)NN=C1CCCCCC1 (stereo not drawn)
 : -20% | -2% | 10%[46.1 µM] | 12% | nt | nt | ? | 10%
CCc1ccc2nc(N(CCN(C)C)C(=O)c3ccc4ccccc4c3)sc2c1
 : -3% | -3% | nt | -21% | nt | nt | nt | 1%
CN(Cc1ccccc1)C(=O)CCn1c(=O)c2cccn2c2cccnc21
 : 7% | -2% | nt | 9% | nt | nt | nt | 5%
Cc1ccc(NC(=O)CSCC(=O)O)c(C)c1
 : -24% | 6% | -14% | 5% | 0% | 2.4% | -9% | -1%
COCCN1C(=O)c2ccccc2C(C(=O)N2CCN(c3ccccn3)CC2)C1c1ccc(F)cc1 (stereo not drawn)
 : -4% | -3% | -24% | -11% | -9% | 2.5% | -16% | -16%
CCn1c(SCC(=O)c2ccccc2)nc2c(c1=O)SC(C)C2 (stereo not drawn)
 : -12% | -21% | ? | -61% | -11% | -7.8% | 0% | 3%
CC1CCN(c2ccccc2NC(=O)c2ccc(C#N)cc2F)CC1
 : -21% | 0% | 28%[46.1 µM] | 0% | nt | nt | -1%[46.1 µM] | -7%
Cc1nc2ccccn2c1C(=O)N/N=C/c1cc(C)n(-c2ccc(Cl)cc2)c1C
 : ? | 17% | -6% | 8% | ? | -10% | -57% | ?
Cc1ccc(SCCNC(=O)CN(c2ccccc2)S(=O)(=O)N(C)C)cc1
 : -4% | nt | -25%[46.1 µM] | nt | 5% | -5.0% | 26%[46.1 µM] | nt
O=C(NN=C1CCCCCCC1)C(=O)NC1CCCCC1
 : 26% | -2% | 5% | 3% | -1% | -0.9% | 11% | 13%
O=C1CCCN1CCC1CCN(C(=S)Nc2ccc(F)cc2)CC1
 : 19% | 5% | 15% | 0% | -5% | -0.2% | ? | -1%
CCOc1ccccc1N1CCN(C/C=C/c2ccc(N(C)C)cc2)CC1
 : -10% | 0% | ? | -4% | 2% | -1.8% | ? | -9%
Cc1c(C#N)c(NC(=O)c2ccccc2)n(Cc2ccccc2)c1C
 : 0% | ? | ? | 13% | 2% | -4.8% | -15%[46.1 µM] | -10%
CCc1nnc(NC(=O)CSc2nnc3nc(C)cc(C)n23)s1
 : 16% | 3% | 7%[46.1 µM] | 6% | nt | nt | ? | -14%
c1ccc(-c2cc3nccc(-c4ccccn4)n3n2)cc1
 : 13% | -1% | ? | -10% | 26% | -7.1% | ? | -4%
O=C(NCCc1cnc[nH]1)Nc1cccc(C(F)(F)F)c1
 : -6% | 8% | nt | -4% | nt | nt | nt | 8%
CCOC(=O)c1c(NC(=S)NC(=O)/C=C/c2cccs2)sc(C)c1C
 : -19% | 7% | -2% | 5% | 10µM* | 1.2% | 3% | 21%
CC(C)(C)C(=O)C(C(c1ccccc1)N1CCOCC1)N1CCOCC1 (stereo not drawn)
 : -7% | nt | 17%[46.1 µM] | nt | nt | nt | 9%[46.1 µM] | 15%
O=C(NCC(c1ccco1)N1CCCC1)c1ccc(S(=O)(=O)Nc2ccccc2F)cc1 (stereo not drawn)
 : -23% | -2% | -8%[46.1 µM] | nt | nt | nt | -12% | 3%
Cc1nn(C)cc1/C=N\NC(=O)c1ccc2c(c1)c(C)c(C)n2Cc1ccccc1
 : ? | -1% | -19% | 19% | ? | -8.9% | ? | -15%
CCOC(=O)C1(Cc2cccc(F)c2)CCN(C(=O)Cn2cnnn2)CC1
 : -6% | 4% | nt | 3% | nt | nt | nt | -1%
O=[n+]1cc(-c2ccc(Cl)cc2)n([O-])c2c1CCCCC2
 : 11% | 2% | 27% | 16% | 2% | -4.2% | ? | 10%
Fc1ccc(N2CCN(Cc3cnc(N4CCOCC4)s3)CC2)cc1
 : -12% | -4% | 1% | nt | nt | nt | 5%[46.1 µM] | 28%
O=C(Nc1ccc(S(=O)(=O)Nc2ncccn2)cc1)c1ccccc1NS(=O)(=O)c1ccc(Cl)cc1
 : -8% | 0% | nt | -4% | nt | nt | nt | 1%
CCOC(=O)c1cn(-c2nc(-c3ccc(Cl)c(Cl)c3)cs2)c2c(F)c(N3CCOCC3)c(F)cc2c1=O
 : -18% | 1% | 6% | 1% | -25% | -0.9% | ? | 3%
COc1ccccc1NC(=O)C(C)Sc1nc2ccccc2c(=O)n1CC1CCCO1 (stereo not drawn)
 : ? | 6% | -6%[46.1 µM] | nt | nt | nt | -17% | -9%
Cc1cccc(C(=O)N2CCc3cc(CNS(=O)(=O)c4ccc(Cl)s4)ccc32)c1
 : -23% | nt | -27%[46.1 µM] | nt | ? | -1.5% | nt | nt
COCCCNc1nc(SCc2ccccc2)nc2sc3c(c12)CCC3
 : 5% | -15% | 10% | 13% | -10% | -8.8% | -2% | 16%
O=C(CSc1nc(-c2ccc(F)cc2)cc(C(F)(F)F)n1)Nc1ccc2c(c1)OCO2
 : -17% | 6% | -26% | -4% | 3% | -1.2% | -12% | 19%
COc1cc(NC(=O)COC(=O)CC2CC3CCC2C3)cc(OC)c1 (stereo not drawn)
 : 0% | -3% | 3% | nt | nt | nt | 21% | -3%
COc1ccc(N2CCN(S(=O)(=O)c3ccc(C(=O)NC4CCCC4)cc3)CC2)cc1
 : nt | -2% | 3% | -6% | 6% | 2.1% | 2% | 7%
COc1cccc(OCCSc2nnc3sc4ccccc4n23)c1
 : -9% | -21% | ? | -35% | -14% | -5.5% | -1% | 16%
O=C(NCCCl)Nc1cccc(Br)c1
 : 30% | 1% | 11%[46.1 µM] | 4% | nt | nt | 13%[46.1 µM] | -2%
N#CCO/N=C(\c1ccccc1)c1ccncc1
 : -13% | -6% | -2% | 1% | 1% | 0.7% | -1% | 15%
COCCn1c(C)cc(C(=O)CN2C(=O)NC3(CCCCCCC3)C2=O)c1C
 : nt | 25% | 3% | -1% | 13% | 2.0% | ? | 0%
COc1cccc(N2CCN(c3ncnc4c3cnn4-c3ccc(C)cc3C)CC2)c1
 : 4µM* | 8% | nt | 20% | -3% | 0.0% | -4% | -5%
CCOC(=O)c1sc2c(c1C)C(c1cccs1)C1=C(CCCC1=O)N2 (stereo not drawn)
 : ? | 7% | ? | -12% | 26% | 33%[activator] | ? | -6%
CCNC(=O)O/N=C(\C)c1sc(-c2ccc(Cl)cc2)nc1C
 : 18% | -20% | -29% | -63% | ? | -12% | ? | -7%
Cc1ccc2nc(C)cc(N/N=C/c3cccc(O)c3)c2c1
 : -5% | -3% | ? | -24% | nt | nt | ? | -9%
CCC(C)[C@H](NC(=O)OC(C)(C)C)C(=O)N/N=C/c1ccc2cc(OC)ccc2n1 (stereo partly drawn)
 : 15% | -6% | 3% | 2% | 26% | -22% | ? | -3%
Cc1ccc(C)c(C(=O)CN2C(=O)c3ccccc3C2=O)c1
 : 17% | 0% | 0%[46.1 µM] | 15% | nt | nt | -3%[46.1 µM] | 4%
C/C(=N\NC(=O)CSc1nc2ccccc2o1)c1ccc(O)cc1
 : 23% | -2% | ? | nt | nt | nt | 20%[46.1 µM] | 27%

A different layout for 3 compounds above:
Structure: CCCCC(=O)Nc1ccc(C(=O)NNC(=O)c2ccco2)cc1
  2A StopGo = nt; SARS PLpro yeast = 0%; Lassa entry inh = 9%; NS1 function inh = 5%; Cruzain inh noDet = 2%; Cruzain Triton = -1.9%; MARV entry inh = 14%; RE007 growth inh = -1%
Structure: COC(=O)c1cc(CN2CCN(c3ccccc3C)CC2)ccc1O
  2A StopGo = -24%; SARS PLpro yeast = 3%; Lassa entry inh = -7%; NS1 function inh = 2%; Cruzain inh noDet = 0%; Cruzain Triton = 1.5%; MARV entry inh = ?; RE007 growth inh = -8%
Structure: O=C(NCCCc1nc2ccccc2n1Cc1ccc(F)cc1)C1CCCCC1
  2A StopGo = -3%; SARS PLpro yeast = nt; Lassa entry inh = -12%[46.1 µM]; NS1 function inh = nt; Cruzain inh noDet = -6%; Cruzain Triton = -6.5%; MARV entry inh = -7%[46.1 µM]; RE007 growth inh = nt

Assay outcomes (PubChem BioAssay)
